Screening results deposited in PubChem by National Center for Advancing Translational Sciences (NCATS).
TRPML1 ag = agonists of human TRPML1 channel | Q9GZU1 | TRPML1-expressing cells, Ca2+ dye fluorescence, FDSS; host cell line not named in the record; reference of the full effect not given here | activation, % (no concentration beside the values) | 0.12% of 410,000 active | AID 624414; in the data active = activation above about 50%; inconclusive = about 30% to 50%; inactive = below about 30%; further: 0% is about no effect; the text of the record puts the active cut at 80%
Target sequence (Q9GZU1 whole entry, looked up): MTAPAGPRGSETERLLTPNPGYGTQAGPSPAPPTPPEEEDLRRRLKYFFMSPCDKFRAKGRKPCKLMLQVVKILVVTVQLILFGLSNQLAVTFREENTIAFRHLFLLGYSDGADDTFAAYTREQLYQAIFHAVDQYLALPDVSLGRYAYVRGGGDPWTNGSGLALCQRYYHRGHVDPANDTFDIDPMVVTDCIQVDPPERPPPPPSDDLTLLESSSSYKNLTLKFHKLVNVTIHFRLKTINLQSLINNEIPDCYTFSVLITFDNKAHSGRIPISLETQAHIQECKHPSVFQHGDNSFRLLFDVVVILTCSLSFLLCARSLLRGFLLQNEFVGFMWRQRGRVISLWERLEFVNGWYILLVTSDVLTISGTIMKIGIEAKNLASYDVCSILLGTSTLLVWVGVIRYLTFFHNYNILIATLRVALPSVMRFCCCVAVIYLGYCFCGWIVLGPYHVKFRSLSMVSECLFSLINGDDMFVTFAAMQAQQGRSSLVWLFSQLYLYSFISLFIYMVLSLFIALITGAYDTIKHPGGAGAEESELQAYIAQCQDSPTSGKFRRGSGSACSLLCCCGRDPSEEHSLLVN
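Tetracycline-induced TRPML1-DL cells are seeded and incubated overnight before loading with a no-wash Ca2+ dye and quencher. Agonist activity is taken from the 110 s fluorescence read following compound pin-transfer on an FDSS, before EC80 54-4 challenge.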
CtBP-E1A inh = CtBP/E1A binding inhibition. AlphaScreen GST-E1A/His-CtBP binding, 1536-well; stronger effect = lower value; control for the full effect not named in the record. activity change, % (concentration not given with the values). 0.49% of 340,000 active; in the data active means activity change below about -65%; inconclusive means about -30% to -65%; inactive means above about -30%; further: on the % scale 0 is the no-effect control and ±100 the full control effect
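Steps: dispense buffer (Tris pH 8.0, NaCl 300 mM, TCEP 1 mM, BSA, Tween 20); add 5X protein mix (GST-E1A, His-CtBP, 125 nM each); pin 23 nL compound; 2 h at 37 °C, dark; add 5X beads (50 ug/mL); 1 h; read.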
Six1-Eya2 inh = blocks human Six1 binding to Eya2 | Q15475+O00167 | activity change, % (concentration not given with the values) | 0.56% of 360,000 active | AlphaScreen GST-Six1/His-Eya2 binding, biochemical; stronger effect = lower value; control for the full effect not named in the record | AID 651725; in the data active = activity change below about -65%; inconclusive = about -30% to -65%; inactive = above about -30%; further: on the % scale 0 is the no-effect control and ±100 the full control effect
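Compounds are tested against tagged Six1 and Eya2 proteins bridged by glutathione donor and nickel acceptor beads; after a one-hour incubation at 37 °C without light, AlphaScreen emission is recorded.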
PINK1 modulator = changes PINK1 expression; PINK1 immunofluorescence, high-content cytometry, 24 h; Potency, µM (top dose mostly 76.6 µM), for the others: at the top dose activation (PINK1 increase), actives largely listed as activators; 0.2% of 410,000 active; AID 624263; active = well fitted activation curve with a large enough effect; inconclusive = small, poorly fitted or top-dose-only effect; inactive = flat fitted curve, though single readings scatter; cell line not stated here;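 further: potency means the concentration at half of the fitted maximal effect; % of control where 0% means no effect; nearly all actives have a fitted effect of over 65% in size; a mitochondrial uncoupler was the plate control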
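A stable cell line was treated with compounds at 5 concentrations for 24 hours, with CCCP as control. PINK1 levels and mitochondrial localization were measured by immunofluorescence with mitochondrial, cell and nuclear markers after fixation, read by laser-scanning cytometry.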
D2 agonist = agonists of human D2 dopamine receptor (beta-arrestin); DiscoveRx PathHunter D2 beta-arrestin, luminescence, 90 min; 100% = 57 uM dopamine signal; activation, % (test concentration not listed); 0.084% of 360,000 active; AID 624465; in the data active = activation above about 40%; inconclusive = about 15% to 40%; inactive = below about 15%; further: compound concentration not given in the record; the text of the record calls up to 30% inactive
Target sequence (P14416 whole entry, looked up): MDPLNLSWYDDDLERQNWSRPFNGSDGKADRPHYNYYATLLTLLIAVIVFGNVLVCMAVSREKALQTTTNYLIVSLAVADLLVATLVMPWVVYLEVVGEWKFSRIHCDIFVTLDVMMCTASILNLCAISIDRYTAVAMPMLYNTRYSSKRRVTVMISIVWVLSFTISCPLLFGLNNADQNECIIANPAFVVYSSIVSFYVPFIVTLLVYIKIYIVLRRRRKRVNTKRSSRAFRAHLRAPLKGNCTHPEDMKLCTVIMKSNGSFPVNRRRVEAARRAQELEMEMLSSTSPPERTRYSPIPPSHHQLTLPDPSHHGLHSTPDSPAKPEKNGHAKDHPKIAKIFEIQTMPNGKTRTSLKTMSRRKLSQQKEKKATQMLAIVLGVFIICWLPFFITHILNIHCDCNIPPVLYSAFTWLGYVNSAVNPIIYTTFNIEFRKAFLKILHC
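Agonist mode: compounds alone added to overnight-plated D2 PathHunter cells for 90 min at 37 C, with 57 uM final dopamine (EC100) defining full response. Beta-arrestin recruitment detected by chemiluminescent reagent, read after 1 h at ambient temperature.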
D2 PAM = positive allosteric modulators of human D2 dopamine receptor | P14416 | DiscoveRx D2 beta-arrestin cells, luminescence, 90 min; 100% = 57 uM dopamine signal | potentiation, % (concentration not given with the values) | 0.23% of 360,000 active | AID 624464; active = potentiation of 50% or more; inconclusive = 30% to 50%; inactive = 30% or less;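 further: compound concentration not given in the record; tested on top of an EC20 dose of dopamine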
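PathHunter D2 cells, attached overnight at 37 deg C, received compound in DMSO plus dopamine at EC20 (50 nM final) for 90 min at 37 deg C. Beta-arrestin recruitment was read as luminescence after 1 h with detection reagent at ambient temperature.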
The depositor's hits bear a star; ? = inconclusive; nt = no result given; & = joins results of further samples; [ ] = another dose, or the depositor's remark. Compounds as they come (roughly 1.3% active in at least one column).

SMILES	TRPML1 ag	CtBP-E1A inh	Six1-Eya2 inh	PINK1 modulator	D2 agonist	D2 PAM
Cn1c(-c2ccc(F)c(F)c2)cc2onc(-c3ccccc3)c2c1=O	-0.4	8.2	10.4	2.6%	-7.6	-10.3
CN(C)S(=O)(=O)c1ccc(Cl)c(C(=O)OCC(=O)NC(=O)NC2CCCC2)c1	0.0	nt	2.6	1.4%	2.0	5.4
Cc1c(NC(=O)C2(C)CCCCC2)c(=O)n(-c2ccccc2)n1C	-0.6	-4.3	3.7	7.8%[38.3 µM]	-2.5	-13.0
CC(C)[C@H]1COCCS(=O)(=O)N1Cc1ccccc1-c1cccc2c1oc1ccccc12	-0.5	-8.9	-11.0	0.8%	-1.0	nt
Cc1ccc(C(=O)N/C(=C/c2cccnc2)C(=O)N2CCCCCC2)cc1	0.0	5.1	-2.4	-0.1%	0.1	-10.8
c1ccc(Cc2nn3c(-c4ccncc4)nnc3s2)cc1	1.1	-13.1	0.0	-0.7%[38.3 µM]	-2.4	-6.1
Cc1c(NC(=O)Nc2ccc(F)cc2)c(=O)n(-c2ccccc2)n1C	-1.5	8.9	11.9	-2.6%	-1.3	-6.6
CCN(CC)c1nc2c(c(=O)n(C)c(=O)n2C)n1CCCc1ccccc1	-0.4	nt	-0.7	3.5%	4.1	-3.5
C=C(C)Cn1c(N2CCCC2)nc2c1c(=O)[nH]c(=O)n2C	-0.5	6.1	1.0	1.0%	0.6	-8.6
Cc1ccccc1-n1ncc2c([N+](=O)[O-])cc([N+](=O)[O-])cc21	-0.1	?	?	0.0%	7.7	83.2*
O=C(O)CNC(=O)C1COc2ccccc2O1 (stereo not drawn)	-0.3	1.7	11.4	-0.9%	-1.0	-2.1
CCOC(=O)c1[nH]c(CSc2nnc(-c3ccncc3)n2CCOC)c(C(=O)OCC)c1C	-0.9	-0.9	4.1	0.6%	-2.9	-1.5
CCCCN(C)C(=O)C(Cc1ccccc1)NS(=O)(=O)c1ccc2c(c1)c(=O)n(C)c(=O)n2C (stereo not drawn)	0.1&0.3	-0.8	-6.0	1.7%&0.9%	-4.2	-2.1
CSc1sc(C(=O)NC(=O)NCc2cccnc2)c(C)c1-c1ccon1	-0.3	0.2	-0.7	-0.5%	-2.4	-7.2
O=C(CN(Cc1cccs1)C(=O)CNC(=O)c1ccco1)NC1CCCCC1	1.9	2.3	-1.3	-2.3%	-3.3	-12.0
Cc1ccc(NC(=O)CNc2ccc(Cl)c(Cl)c2)cc1S(=O)(=O)N(C)C	1.8	0.3	-6.4	?	3.0	-20.0
CC(=O)Nc1cccc(C(=O)NNC(=O)c2ccc(NS(=O)(=O)c3cccs3)cc2)c1	0.0	5.7	-16.8	0.8%	-4.6	-24.0
CC1(C(=O)Nc2ccc3nc[nH]c3c2)CCN1C(=O)C1(c2ccccc2)CCCC1 (stereo not drawn)	-0.6	-12.8	2.0	0.9%	-4.1	-9.4
COCCn1c(SCc2ccc(Cl)cc2)nc2c1c(=O)[nH]c(=O)n2C	-0.4	7.7	-14.4	-0.1%	-1.8	-3.2
Cn1ncc(Cl)c1C(=O)NC(=S)Nc1sc2c(c1C#N)CCCCC2	-0.8	-1.8	-4.1	0.0%	-1.6	-2.4
O=C(Cc1cccc(NC(=O)C2CCCN(C(=O)C3CCCC3)C2)c1)Nc1ccc(C(=O)N2CCOCC2)cc1 (stereo not drawn)	-0.8	-1.6	-13.0	-0.4%	0.2	nt
CCOC(=O)/C(C#N)=C\c1cc(C)n(-c2ccccc2)c1C	1.2	-4.6	6.0	0.1%	3.9	-4.4
CC(C)C[C@H]1CN(CCCC[C@H]2CNC(=O)C(=O)N2CCC2CCCCC2)C(=O)C(=O)N1CCc1ccccc1	-0.5	3.7	3.1	6.3%	nt	nt
O=C(c1ccc(Cl)c(S(=O)(=O)N2CCCCC2)c1)N1CCN(c2ccccc2)CC1	0.3	3.5	-10.7	2.0%	-3.9	-3.5

One compound at a time (already shown). Screens in order: TRPML1 ag	CtBP-E1A inh	Six1-Eya2 inh	PINK1 modulator	D2 agonist	D2 PAM
Shown for CSc1sc(C(=O)NC(=O)NCc2cccnc2)c(C)c1-c1ccon1 : -0.3	0.2	-0.7	-0.5%	-2.4	-7.2
Shown for CC(C)C[C@H]1CN(CCCC[C@H]2CNC(=O)C(=O)N2CCC2CCCCC2)C(=O)C(=O)N1CCc1ccccc1 : -0.5	3.7	3.1	6.3%	nt	nt
Shown for O=C(CN(Cc1cccs1)C(=O)CNC(=O)c1ccco1)NC1CCCCC1 : 1.9	2.3	-1.3	-2.3%	-3.3	-12.0
Shown for O=C(c1ccc(Cl)c(S(=O)(=O)N2CCCCC2)c1)N1CCN(c2ccccc2)CC1 : 0.3	3.5	-10.7	2.0%	-3.9	-3.5
Shown for Cc1ccc(NC(=O)CNc2ccc(Cl)c(Cl)c2)cc1S(=O)(=O)N(C)C : 1.8	0.3	-6.4	?	3.0	-20.0

New compounds follow:
SMILES	TRPML1 ag	CtBP-E1A inh	Six1-Eya2 inh	PINK1 modulator	D2 agonist	D2 PAM
CC(C)(C)SCCNC(=O)c1ccccc1	0.9	2.3	8.7	2.0%	-1.5	-13.2
Cc1nc(SCCCSc2n[nH]c(C)n2)n[nH]1	0.1	1.4	0.0	-1.9%	-2.4	-19.3
Cc1ccccc1CNC(=O)CCNS(=O)(=O)c1ccc(OC(F)(F)F)cc1	1.4	-0.9	5.1	5.9%	4.3	-13.1
O=C1CSC(c2ccccn2)N1c1ccc(F)cc1F (stereo not drawn)	-0.6	7.1	2.5	0.1%	0.0	-2.1
Cc1ccc(NS(=O)(=O)c2c(C)noc2C)cc1	0.0	2.2	5.3	-0.1%	5.4	1.2
Cc1csc(NC(=O)c2ccc(C)c([N+](=O)[O-])c2)n1	0.2	-18.6	-17.9	1.2%	0.5	4.5
CCCCC(=O)N(C)c1c(C)nc2ccc(C(=O)N(C)CCN(C)C)cn12	0.2	0.3	1.2	3.4%	-3.1	-10.2
CCOC(=O)c1[nH]c2c(c1-c1ccccc1)C(=O)CC(c1ccccc1)C2 (stereo not drawn)	0.2	0.0	2.3	10.5%	-0.5	-0.7
O=C(c1ccc(Cl)cc1)C1CCN(C(=O)N2CCOCC2)CC1	-0.3	8.5	4.7	4.6%[38.3 µM]	-0.6	-1.3
CC1CCCN(CCCNC(=O)c2ccc3c(c2)N(Cc2ccccc2F)C(=O)c2ccccc2S3(=O)=O)C1 (stereo not drawn)	0.4&1.1	-19.3	-4.6	0.1%&2.6%	-6.3	-53.8
C[C@@H]1CN([C@@H](C)CO)C(=O)CCCn2nncc2CO[C@H]1CN(C)S(=O)(=O)c1ccccc1C#N	0.5	-2.7	-8.5	3.2%	-2.9	1.0
COc1ccc(NC(=O)CN(C)C(=O)Cc2ccsc2)cc1	0.4	-2.8	-7.5	-0.1%	-3.7	-9.5
Cc1ccc(/C=N\NC(=O)CCc2n[nH]c(=O)[nH]c2=O)o1	0.0	nt	-6.0	0.1%	8.4	-5.2
COc1ccc(C(CNC(=O)COc2ccccc2OC)N2CCCCC2)cc1 (stereo not drawn)	-0.6	1.3	-0.1	-0.8%	-3.4	-31.7
COc1cc(F)cc(-c2ccc3c(c2)c(C#Cc2ccsc2)c(-c2cc(OC)cc(OC)c2)n3C)c1	0.2	7.7	18.7	1.1%	-0.5	-1.7
Cc1sc2nc(CSc3nc4ccccc4c(=O)n3CCCN3CCOCC3)[nH]c(=O)c2c1C	0.1	-0.3	2.0	3.7%	-1.9	-18.2
Cc1cccc(NC(=O)/C(C#N)=C/c2ccccc2O)n1	-0.2	3.2	0.5	1.2%	-3.9	-12.3
COc1ccc(NC(=O)CCS(=O)(=O)c2ccc3c(c2)CCN3C(C)=O)cc1	-0.7	nt	-1.8	0.2%	-0.8	3.7
O=C(c1cccc(OC2CCN(Cc3cc(F)cc(F)c3)CC2)c1)N1CCCC1	1.5	0.0	-5.1	-1.3%	4.1	-31.5
CCCCCCc1cc2cc(-c3nnc(-c4ccccc4)o3)c(=O)oc2cc1O	?	8.7	18.7	?	6.5	3.2
CC1(C)NC(=O)N(CC(=O)N2CCCC(C(F)(F)F)C2)C1=O (stereo not drawn)	-0.5	-3.2	3.0	2.1%	2.0	22.2
Cc1cc(C)c2c(SC(C)C)nc(N)nc2n1	0.3	nt	-2.7	3.5%	4.1	-5.9
COc1ccc(CCNc2oc(-c3ccccc3OC)nc2C#N)cc1	3.4	-20.0	?	1.3%	-2.5	-2.7
Cc1ccc(OCCCC(=O)Nc2ccc(S(=O)(=O)N3CCOCC3)cc2)cc1	0.5	-4.8	-2.2	0.6%	1.3	0.6
O=S(=O)(NCCc1ccccn1)c1ccc(F)c(F)c1	-1.1	4.9	-1.4	1.2%	-6.1	-17.9
O=S(=O)(/C=C/C=C/S(=O)(=O)c1ccccc1)c1ccccc1	5.2	-26.8	?	-4.7%	-7.8	-25.8
COc1ccc(CC(=O)Nc2ccc(C)c(S(=O)(=O)N3CCCCCC3)c2)cc1	1.1	2.5	-1.9	4.1%	0.0	2.2
C=CC(=O)Nc1cccc(Oc2ccnc3[nH]ccc23)c1	2.8	-19.9	1.0	-0.9%	-3.4	-7.9
Cc1ccc(OCC(=O)N2CCN(C(=O)c3cccs3)CC2)cc1	-0.3	-0.4	3.5	-1.0%	0.3	6.5
Clc1ccc(-c2nnc(C34CC5CC(CC(C5)C3)C4)o2)cn1	-0.8	7.9	-5.4	4.6%	-2.1	-15.0
CCOc1cc(/C=C/C(=O)N(CC)CC(=O)NCc2cccs2)cc(Cl)c1OC	2.5	1.5	-7.8	0.1%	0.8	-35.7
COCCCN1C(=O)N(c2ccc(F)cc2)C(=O)C1CC(=O)Nc1ccc(OC)cc1 (stereo not drawn)	0.0	nt	1.8	0.9%	-0.4	-3.1
CCc1c(O)nc2sc3ccccc3n2c1=O	0.0	-4.0	-4.3	3.0%	-2.4	-2.2
Cc1ccc(S(=O)(=O)N2[C@@H](c3ccc4c(c3)OCO4)C(C(=O)O)=C[C@H]2CC2CCCC2)cc1	0.7	-24.3	-1.3	-0.9%	0.8	-0.6
CCC(NC(=O)c1cc(COc2cc(C)c(Cl)c(C)c2)on1)c1ccncc1 (stereo not drawn)	-1.2	nt	-2.8	28.8%	-0.8	-20.6
CS(=O)(=O)N1CCC(C(=O)NCCN2CCN(Cc3ccccc3)CC2)CC1	0.7	-5.6	0.7	0.8%[38.3 µM]	3.1	-17.0
COc1cc(OC)c(OC)cc1CNC(=O)c1cccc(S(=O)(=O)N2CCc3ccccc3C2)c1	0.1	-1.2	-12.9	3.2%	12.1	21.0
COc1cc2c(cc1OC)CN(C(=O)CNS(=O)(=O)c1ccc(C)c(C)c1)CC2	-0.7	2.9	-3.7	-0.2%	-1.0	-1.9
COc1ccc(S(=O)(=O)Oc2cccc(/C=N/N=C3/NC(=O)C(CC(=O)O)S3)c2)cc1 (stereo not drawn)	2.6	0.7	-8.9	1.9%	-1.8	2.2
Cc1nn(Cc2ccc(Cl)cc2)c(Cl)c1/C=N/NC(=O)c1cccnc1	-0.6	-0.9	-6.0	8.7%	7.0	7.2
